StopGo RLuc: FMDV 2A StopGo reporter, Renilla signal | HEK cells with a luciferase reporter of 2A StopGo recoding | Potency, µM (top dose mostly 57.5 µM), for the others: at the highest dose signal change, negative = less light | 0.32% of 120,000 active | AID 1745857; active means well fitted falling curve with a large enough effect; inconclusive means small, poorly fitted or top-dose-only effect; inactive means no such curve, though single readings can be large or run the other way; note: nearly all actives have a fitted effect of over 55% in size; overnight with compound
StopGo FLuc: lowers the firefly signal of an FMDV 2A StopGo reporter | HEK cells with a luciferase reporter of 2A StopGo recoding | Potency, µM (highest dose often 57.5 µM), for inactives: top-dose signal change, negative = less light | 0.23% of 120,000 active | AID 1745856; active = well fitted falling curve with a large enough effect; inconclusive = small, poorly fitted or top-dose-only effect; inactive = no such curve, though single readings can be large or run the other way; note: nearly all actives have a fitted effect of over 60% in size; overnight with compound
* marks the source's active call; other numbers are inactive results; ? = inconclusive; [ ] = remark or other dose. % is set by controls: 0 for no effect and ±100 for the full control effect; potency is the fitted concentration of half-maximal effect. Not all compounds are listed, so the mix of outcomes need not match the whole.

1) CN(C)C(=O)C(Sc1nnc(-c2ccc(F)cc2)c2ccccc12)c1ccccc1 (stereo not given)
2) COC(=O)c1ccc(COc2ccc3c(=O)c(Oc4ccccc4F)c(C(F)(F)F)oc3c2)cc1
3) O=C(CCc1nc(CN2CCN(S(=O)(=O)c3ccc(Cl)cc3)CC2)no1)N1CCCCC1
4) CCOC(=O)CNC(=O)CSc1cn(CC(=O)N2CCCC2)c2ccccc12
5) Cc1ccc(C(=O)NC(Nc2ccccc2)C(Cl)(Cl)Cl)cc1 (stereo not given)
6) CCOc1ccc(CNCc2c(C(=O)O)c(C)n(Cc3ccc(C)cc3)c2C)cc1
7) CC(=O)Nc1ccc(NC(=O)CN2N=C(c3ccccc3)c3cc(Cl)ccc3S2(=O)=O)cc1
8) COc1cccc(C(=O)OC2CCN(C)CC2)c1
screen / no. | 1 | 2 | 3 | 4 | 5 | 6 | 7 | 8
StopGo RLuc | -13% | -2% | 0% | -5% | ? | -14% | 15% | -4%
StopGo FLuc | 11% | 4% | 6% | 4% | ? | -20% | 0% | 0%

Values in list order from the list.
Entries 1 to 8 in StopGo FLuc: 11%, 4%, 6%, 4%, ?, -20%, 0%, 0%

(list continues)
9) COC(=O)c1ccc(COc2cccc3ccccc23)o1
10) O=c1cc(CN2CCN(c3ncccn3)CC2)nc2sc(C3CCCCC3)nn12
11) CCCS(=O)(=O)N1CCCC1C(=O)NC1CCCCC1 (stereo not given)
12) COc1cccc(C(=O)c2sc(Nc3ccc(Cl)cc3C)nc2N)c1
13) CCc1cc(=O)oc2cc(OCC(=O)NCCc3ccc(S(N)(=O)=O)cc3)ccc12
14) Cc1ccc(-c2cc(C(=O)NCc3ccco3)c3cccc(C)c3n2)cc1
15) CC(Sc1nnnn1C1CC1)C(=O)c1c[nH]c2ccccc12 (stereo not given)
16) CCCCn1nc(C(=O)Nc2cc(C(=O)O)ccc2C)c2ccccc2c1=O
screen / no. | 9 | 10 | 11 | 12 | 13 | 14 | 15 | 16
StopGo RLuc | -1% | -6% | 11% | -19% | 7% | -8% | 0% | -3%
StopGo FLuc | 36%[activator] | 0% | 146%[activator] | 14% | 1% | 7% | 93%[activator] | -2%

17) Cc1cc(C)cc(-n2c(SCC(=O)N3CCc4ccccc43)nc3c([nH]c4ccccc43)c2=O)c1
18) O=C(COc1coc(CN2CCSCC2)cc1=O)NCc1ccccc1Cl
19) COCCSc1nc2c(c(=O)[nH]c(=O)n2C)n1Cc1ccccc1Cl
20) CC1(C)CC(=O)C2=C(C1)OC1=C(C(=O)CC(C)(C)C1)C2c1ccc(-c2ccc3c(c2)COC3=O)o1
21) COc1cccc(CNC(=O)CN2C(=O)CSc3ccc(S(=O)(=O)N(C)C)cc32)c1
22) Cc1ccc(-n2nc(C(=O)NCCc3cccc(C)c3)c3c4ccccc4n(C)c3c2=O)cc1
23) COc1ccc(C(=O)Nc2ncccc2C)cc1Br
24) O=C(CSc1ncnc2ccccc12)Nc1ccccc1C(=O)Nc1ccc(F)cc1
screen / no. | 17 | 18 | 19 | 20 | 21 | 22 | 23 | 24
StopGo RLuc | -7% | -8% | 3% | 44%[activator] | -6% | -6% | 6% | -18%
StopGo FLuc | -4% | 3% | 9% | 28% | -18% | -12% | 0% | 43%[activator]

25) Fc1cccc(-c2nc(CN3CCCC3c3nnc4ccccn34)co2)c1 (stereo not given)
26) O=C(Nc1ccccc1C(=O)NCC(F)(F)F)c1cnccn1
27) CCCc1nn2c(=O)cc(COc3ccc(/C=C(\C#N)C(=O)Nc4ccccc4)cc3)nc2s1
28) CCCCCCCCCCCCCCCCN
29) Cc1noc(-c2ccc(-c3noc(-c4cccc(Cl)c4)n3)cc2)n1
30) CNC(=S)NNC(=O)c1ccc(C(C)C)cc1
31) Cc1ccc(C(=O)Nc2c(C)nc3ccccn3c2=O)cc1
32) CCNc1nc(SC(C)C(=O)N2CCCC2)nc2ccccc12 (stereo not given)
screen / no. | 25 | 26 | 27 | 28 | 29 | 30 | 31 | 32
StopGo RLuc | 8% | -14%[1.06 µM] | -17% | 6% | -16% | 4% | 11% | -2%
StopGo FLuc | 14% | 0% | -17% | 2% | 20% | 0% | 119%[activator] | -11%

33) Cc1cccc(NS(=O)(=O)c2c(C)nc3sccn3c2=O)c1C
34) COc1ccc(-n2nc3ccc(NC(=O)c4cc5ccccc5o4)cc3n2)cc1Cl
35) Cc1nc(-c2ccccc2Cl)sc1C(=O)N[C@H](CC(C)C)C(=O)O
36) COc1cccc(Cn2c(=O)n(-c3ccccc3C)c(=O)c3c2c2cc(C)ccc2n3C)c1
37) CCN(CC)c1cc(C)c2cc(NC(=O)/C=C/c3ccccc3OC(C)C)ccc2n1
38) CCOC(=O)c1ccc(NC(=O)CSc2nc(=O)[nH]nc2C)cc1
39) CCOc1ccccc1NC(=O)CN1C(=O)CC(c2ccc(C)c(C)c2)=Nc2ccccc21
40) O=C(CSc1ncc(-c2ccccc2)[nH]1)Nc1ccccc1
screen / no. | 33 | 34 | 35 | 36 | 37 | 38 | 39 | 40
StopGo RLuc | 130%[activator] | -2% | 37%[activator] | -27% | 4% | 16% | 28% | -6%
StopGo FLuc | 2% | -11% | 52%[activator] | -32% | -1% | 116%[activator] | 196%[activator] | 44%[activator]

41) COC(=O)CN1C(C(=O)c2ccccc2)=C(OC(=O)c2ccc(F)cc2)c2ccccc2S1(=O)=O
42) COc1ccccc1-n1c(-c2ccccc2)cn2c3c(=O)[nH]c(=O)n(C)c3nc12
43) COc1cccc2c1Oc1ncccc1N(C(=O)Nc1cccc(Cl)c1)C2
44) O=S(=O)(c1ccc(Br)cc1)c1nc(-c2cccs2)oc1SCc1ccccc1F
45) Cn1c(=O)c2c(nc(NCCc3ccccc3)n2Cc2ccc(Cl)c(Cl)c2)n(C)c1=O
46) COc1ccc(OC)c(CCNc2nc3ccccc3c3nc(-c4cccnc4)nn23)c1
47) CCCCCOc1ccc(/C=C/C(=O)Nc2sc(C(C)=O)c(C)c2C(=O)OCC)cc1OC
48) CCOC(=O)C1CCN(C(c2ccc(F)cc2)c2sc3nc(-c4ccco4)nn3c2O)CC1 (stereo not given)
screen / no. | 41 | 42 | 43 | 44 | 45 | 46 | 47 | 48
StopGo RLuc | 5% | 2% | -2% | 235%[activator] | -4% | 3% | -8% | 36%[activator]
StopGo FLuc | 29% | 7% | -2% | -8% | 0% | 4% | -21% | 6%

Shown bar-delimited: entries from further up
# | canonical_smiles | StopGo RLuc | StopGo FLuc
27 | CCCc1nn2c(=O)cc(COc3ccc(/C=C(\C#N)C(=O)Nc4ccccc4)cc3)nc2s1 | -17% | -17%
29 | Cc1noc(-c2ccc(-c3noc(-c4cccc(Cl)c4)n3)cc2)n1 | -16% | 20%
11 | CCCS(=O)(=O)N1CCCC1C(=O)NC1CCCCC1 (stereo not given) | 11% | 146%[activator]

Following part:
49) O=C(NCCc1c[nH]c2ccccc12)OCc1cn(Cc2cccc(F)c2)nn1
50) O=C(Cc1cccc(F)c1)NC1C2CC3CC(C2)CC1C3 (stereo not given)
51) COC(=O)c1ccc(F)c(NC(=O)CCc2c(C)nc(C)[nH]c2=O)c1
52) O=C(C(Sc1nc2cc(S(=O)(=O)N3CCCCC3)ccc2o1)c1ccccc1)N1CCCCC1 (stereo not given)
53) Cc1cccc(-c2cc(Nc3cccc(C(=O)Nc4cccc(F)c4)c3)ncn2)c1
54) CC(Oc1ccc(C(=O)/C=C/c2ccsc2)cc1)C(=O)O (stereo not given)
55) CCc1ccc2c(CN(C)CCOc3ccc(C)cc3)cc(=O)oc2c1
56) COc1ccc(CNc2oc(-c3ccc(COc4ccc(Cl)cc4)o3)nc2C#N)cc1
screen / no. | 49 | 50 | 51 | 52 | 53 | 54 | 55 | 56
StopGo RLuc | 13% | 30% | 0% | 78%[activator] | ? | -12% | -6% | -7%
StopGo FLuc | 12% | 20% | 5% | -3% | -55% | 14% | -8% | 13%

57) Cc1cccn2c(=O)c(C(=O)NC(C)c3ccccc3)c(O)nc12 (stereo not given)
58) Cc1ccc2nc(COc3ccccc3NC(=O)COc3ccccc3Cl)cc(=O)n2c1
59) CCCCCOC(=O)c1c(C)oc2cc(C)c(NS(=O)(=O)c3cccs3)cc12
60) CS(=O)(=O)Oc1ccc2c(c1)O/C(=C/c1cccnc1)C2=O
61) O=C(Nc1ccccc1C(F)(F)F)c1ccc2oc(=O)c(S(=O)(=O)c3ccc(F)cc3)cc2c1
62) FC(F)Oc1ccc(CNCCc2c[nH]c3ccccc23)cc1
63) CCN(CC)C(=O)CN(C)C(=O)Nc1cccc(Cl)c1
64) CCN(CC)S(=O)(=O)c1c(C)n[nH]c1C
screen / no. | 57 | 58 | 59 | 60 | 61 | 62 | 63 | 64
StopGo RLuc | -3% | 12% | 68%[activator] | -6% | -4% | 8% | 8% | 14%
StopGo FLuc | -12% | -15% | -1% | 35%[activator] | -4% | 29% | 14% | 14%

Next part; the last 4 above are carried over.
61) O=C(Nc1ccccc1C(F)(F)F)c1ccc2oc(=O)c(S(=O)(=O)c3ccc(F)cc3)cc2c1
62) FC(F)Oc1ccc(CNCCc2c[nH]c3ccccc23)cc1
63) CCN(CC)C(=O)CN(C)C(=O)Nc1cccc(Cl)c1
64) CCN(CC)S(=O)(=O)c1c(C)n[nH]c1C
65) CCC(C)(C)NC(=O)Cc1n[nH]c(=O)c2ccccc12
66) CCOC(=O)c1ccccc1NC(=O)c1sc2nc3n(c(=O)c2c1C)CCCC3
67) COc1ccc2oc(=O)c(C(=O)N3CCN(c4cc(C)ccc4C)CC3)cc2c1
68) CCOc1ncccc1CNC(=O)c1cc2cc(C)ccc2nc1C
69) COCc1ccccc1NS(=O)(=O)c1cc(C(=O)O)cc2c1CCC2
70) O=C(c1ccc2c(c1)N(Cc1ccccc1)C(=O)c1ccccc1S2(=O)=O)N1CCCCCC1
71) Cc1ccc(C)c(OCCOC(=O)c2ccc(CS(C)(=O)=O)cc2)c1
72) COc1ccc(COc2ccc(C#N)cc2OC)cc1F
screen / no. | 61 | 62 | 63 | 64 | 65 | 66 | 67 | 68 | 69 | 70 | 71 | 72
StopGo RLuc | -4% | 8% | 8% | 14% | -4% | 5% | 32%[activator] | 6% | 9% | 224%[activator] | -17% | 18%
StopGo FLuc | -4% | 29% | 14% | 14% | -3% | 9% | 35%[activator] | 8% | 18% | 0% | -7% | 309%[activator]

73) O=C(CSc1ncc(-c2ccccc2)o1)Nc1ccc(F)cc1F
74) COc1ccc(-c2nc(SCC(=O)NC3CCCC3)c(-c3ccc(F)cc3)[nH]2)cc1OC
75) Cc1cc(C(=O)OCC(=O)c2cccc3ccccc23)c2ccccc2n1
76) COc1ccccc1Oc1c(C)oc2cc(OC(C)=O)ccc2c1=O
77) Cc1ccc(Cn2c(=O)n(Cc3nc(-c4ccccc4)no3)c(=O)c3cc4c(cc32)OCO4)cc1
78) CCC(=O)N1CCc2cc(Br)cc(S(=O)(=O)CCC(=O)NCc3cccc(OC)c3)c21
79) COCCNC(=S)NNC(=O)c1cc(C)nc2ccccc12
80) CC(=O)Nc1ccc(NC(=O)CSc2nnc(-c3ccccc3Cl)n2Cc2ccco2)cc1
screen / no. | 73 | 74 | 75 | 76 | 77 | 78 | 79 | 80
StopGo RLuc | 15% | -4% | 0% | 0% | -1% | 2% | 13% | 3%
StopGo FLuc | 185%[activator] | -12% | -11% | 0% | -18% | -16% | 21% | 1%

81) CC(=O)NCCNC(=O)c1cc2ccc(F)cc2nc1C
82) Cc1ccc(-c2nnc(Nc3cccc(C(F)(F)F)c3)c3ccccc23)cc1S(=O)(=O)N1CCOCC1
83) COc1ccc(Cc2nc3c4c(C)c(C)n(C5CCCCC5)c4ncn3n2)cc1OC
84) COc1cc(CNC(=O)c2cc(C)nc3ccc(C)cc23)cc(OC)c1OC
85) O=C(NCCc1ccc(F)cc1)Nc1ccccc1Cl
86) CCn1c(=O)cc(SCC(=O)Nc2ccc(C)c(F)c2)c2ccccc21
87) COc1ccccc1NC(=O)NCCN1CCN(c2cccc(Cl)c2)CC1
88) Cc1ccc(/C=C/C(=O)O)c(Br)c1
89) CCCCC(CC)C(=O)Nc1cccc2ccccc12 (stereo not given)
90) Cc1ccc(-c2cc(C(=O)N3CCN(Cc4ccc(C#N)cc4)CC3)c3ccccc3n2)o1
91) O=C(NNC(=O)C1CC1c1ccccc1)NC1CCCCC1 (stereo not given)
screen / no. | 81 | 82 | 83 | 84 | 85 | 86 | 87 | 88 | 89 | 90 | 91
StopGo RLuc | -7% | 34%[activator] | -14% | 4% | -11% | -6% | -8% | -4% | -4%[1.06 µM] | ? | 85%[activator]
StopGo FLuc | -1% | -14% | -6% | 9% | 56%[activator] | -10% | -15% | 18% | 6% | 38%[activator] | 5%

Screening data from PubChem BioAssay.
